Assay outcomes as filed in PubChem.
SARS PLpro yeast = blocks SARS-CoV papain-like protease in a yeast assay. S. cerevisiae expressing SARS-CoV PLpro, growth rescue; control for the full effect not named in the record. Potency, µM (highest dose often 32.9 µM), inactives show at the top dose activity, positive = growth rescue. 330,000 tested, 0.19% active; active means well fitted rising curve with a large enough effect; inconclusive means small, poorly fitted or top-dose-only effect; inactive means no such curve, though single readings can be large or run the other way; further: 0% is about no effect; nearly all actives have a fitted effect of over 55% in size; growth read by luminescence after 48 h
RE007 growth inh = less growth of the S. pombe RE007 Vpr strain; 360,000 tested, 0.21% active; Potency, µM (top dose mostly 92.2 µM), for inactives: at the top dose activity change, negative = less growth; S. pombe RE007 Vpr strain, BacTiter-Glo ATP luminescence, 24 h; control for the full effect not named in the record; active = well fitted falling curve with a large enough effect; inconclusive = small, poorly fitted or top-dose-only effect; inactive = no such curve, though single readings can be large or run the other way;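 further: on the % scale 0 is the no-effect control and ±100 the full control effect; nearly all actives have a fitted effect of over 50% in size; the assay follows cell death caused by Vpr and the record does not say whether a fall means rescue or toxicity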
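Fission yeast RE007 carrying one integrated HIV-1 vpr copy, seeded at OD 0.01 in PMG+AL medium with 23 nL pinned compound. Grown 24 h at 30 degrees; viability read by BacTiter-Glo luminescence after 5 min.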
Lassa entry inh = inhibitors of Lassa virus binding or cell entry. AID 540256. 300,000 tested, 1.2% active. Potency, µM (top dose mostly 37.9 µM), without a hit: top-dose activity change, negative = inhibition, most hits filed as inhibitors. Lassa virus pseudotype entry inhibition, cell reporter; control for the full effect not named in the record; active means well fitted inhibition curve with a large enough effect; inconclusive means small, poorly fitted or top-dose-only effect, or effect the other way; inactive means flat fitted curve, though single readings scatter; tested in HEK293 cells; further: on the % scale 0 is the no-effect control and ±100 the full control effect; nearly all actives have a fitted effect of over 50% in size; luciferase read-out
StopGo reporter = lowers the luciferase signal of an FMDV 2A StopGo reporter | human cells with a luciferase reporter of 2A StopGo recoding; control for the full effect not named in the record | Potency, µM (highest dose often 57.9 µM), inactives show at the top dose signal change, negative = less light | 410,000 tested, 1.2% active | AID 1159524; active = well fitted falling curve with a large enough effect; inconclusive = small, poorly fitted or top-dose-only effect; inactive = no such curve, though single readings can be large or run the other way; tested in HEK293T cells; further: on the % scale 0 is the no-effect control and ±100 the full control effect; nearly all actives have a fitted effect of over 45% in size; luciferase light after 4 h
Cruzain Triton = inhibitors of Trypanosoma cruzi cruzain with detergent; P25779; purified cruzain, Z-FR-AMC fluorescence, 0.01% Triton; Potency, µM, for the others: max response, negative = inhibition, most hits filed as inhibitors; 200,000 tested, 0.43% active;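 further: plate controls were neutral wells for no effect and buffer without enzyme for full effect; nearly all actives have a fitted effect of over 40% in size; top concentration of the series not given in the record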
Target sequence (P25779 123-467 limits assumed): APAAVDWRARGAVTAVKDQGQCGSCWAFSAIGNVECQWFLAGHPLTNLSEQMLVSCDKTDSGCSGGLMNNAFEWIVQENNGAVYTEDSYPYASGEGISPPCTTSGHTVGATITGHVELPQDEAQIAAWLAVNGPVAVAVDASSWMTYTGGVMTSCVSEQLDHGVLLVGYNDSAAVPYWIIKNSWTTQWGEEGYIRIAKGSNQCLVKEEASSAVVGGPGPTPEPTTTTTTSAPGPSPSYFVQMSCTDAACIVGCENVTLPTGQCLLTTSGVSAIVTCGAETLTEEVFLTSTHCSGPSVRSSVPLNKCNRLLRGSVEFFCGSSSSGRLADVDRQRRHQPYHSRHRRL
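Cysteine protease activity tested under reducing, mildly acidic conditions (100 mM sodium acetate pH 5.5, 5 mM DTT) plus 0.01% Triton X-100. Cruzain 1.5 nM; substrate Z-FR-AMC 2 uM; 15 min compound preincubation at room temperature.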
NS1 inh = inhibitors of influenza NS1 protein function. S. cerevisiae slowed by influenza A NS1, growth recovery by OD600. Potency, µM (series often up to 46.1 µM), for inactives: top-dose activity, positive = more growth. 270,000 tested, 0.4% active; active means well fitted rising curve with a large enough effect; inconclusive means small, poorly fitted or top-dose-only effect; inactive means no such curve, though single readings can be large or run the other way; further: nearly all actives have a fitted effect of over 50% in size
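A cell-based growth assay was used: compounds that relieve NS1-induced slow growth of budding yeast raise OD600. Assay medium was yeast nitrogen base with ammonium sulphate and -URA supplement, pH 6.0, with 2% galactose.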
Cruzain noTriton = blocks cruzain activity in detergent-free assay; Potency, µM, for the others: max response, negative = inhibition, actives largely listed as inhibitors; P25779; 200,000 tested, 2.3% active; purified cruzain, Z-FR-AMC fluorescence, no detergent;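 further: plate controls were enzyme without inhibitor for no effect and buffer without enzyme for full effect; nearly all actives have a fitted effect of over 40% in size; top concentration of the series not given in the record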
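Purified cruzain at 1.5 nM, pre-incubated 15 min with compound at room temperature in 100 mM sodium acetate pH 5.5, 5 mM DTT, 0.00005% Triton X-100. Reaction started with 2 uM Z-FR-AMC; AMC fluorescence increase over 60 s gives rate.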
Marburg entry inh = blocks Marburg virus binding to or entry into cells; Marburg virus pseudotyped entry inhibition, cell reporter; control for the full effect not named in the record; about a third of the inactives were read at about 46 µM; Potency, µM (top dose mostly 37.8 µM), for inactives: at the top dose activity change, negative = inhibition, actives largely listed as inhibitors; 300,000 tested, 1.8% active; AID 540276; active = well fitted inhibition curve with a large enough effect; inconclusive = small, poorly fitted or top-dose-only effect, or effect the other way; inactive = flat fitted curve, though single readings scatter; tested in HEK293 cells; about a fifth of its hits are not listed in these tables; further: on the % scale 0 is the no-effect control and ±100 the full control effect; luciferase read-out
Active calls of the source: *; ? = inconclusive; / = no result given; [ ] = dose if it differs, or a comment. Unless noted, the call rests on the fitted dose curve; in most records, active means well fitted curve in the direction sought with a large enough effect; inconclusive means small, poorly fitted or top-dose-only effect, or another doubt; inactive means no such curve, though single readings can be large; an effect the other way counts as inactive or inconclusive. Potency means the concentration at half of the fitted maximal effect.

SMILES	SARS PLpro yeast	RE007 growth inh	Lassa entry inh	StopGo reporter	Cruzain Triton	NS1 inh	Cruzain noTriton	Marburg entry inh
COc1ccc(Cl)cc1NC(=O)C(C)Sc1n[nH]c(N)n1 (stereo not given)	3%	25%	-10%	-7%	-3.3%	6%	10%	-6%
CCOc1ccccc1OCCCCCc1c(C)n[nH]c1C	-7%	2%	-21%	?	2.8%	-32%	10%	-29%
O=C(CS(=O)(=O)c1ccccc1)Nc1nc(-c2ccccc2)cs1	-12%	15%	-7%	-28%	-11%	-68%	?	-4%[46.1 µM]
COC(=O)C1=C(C)N(Cc2ccc(OC)cc2)C(=O)C1	1%	-20%	0%	-4%	-0.3%	28%	-6%	4%
COc1ccccc1Cc1nc2ccccc2nc1SCC(=O)NCCc1ccccc1	/	/	0%[46.1 µM]	?	1.8%	/	1%	/
CCc1ccc(-n2c(CCC(=O)O)ccc2-c2cccs2)cc1	/	/	4%[46.1 µM]	13%	-18%	/	-15%	9%[46.1 µM]
CCN1CCN(CCCNC(=O)c2ccccc2NC(=O)C2=C(C)OCCS2)CC1	-11%	-1%	/	1%	/	4%	/	/
COc1ccc(-n2nc(C(=O)NCC(=O)N3CCN(Cc4ccccc4)CC3)c3ccccc3c2=O)cc1OC	-3%	-3%	-6%[46.1 µM]	-18%	/	-8%	/	?
CN(C)S(=O)(=O)c1cccc(NC(=O)COC(=O)CCSc2ccc(Cl)cc2)c1	5%	-10%	11%	43%[activator]	-12%	7%	6%	7%
O=C(CN1CCN(S(=O)(=O)c2ccc(Br)cc2)CC1)N/N=C/c1cccs1	2%	-4%	-10%	0%	-4.5%	5%	-1%	-15%
Cc1nc(C(C)NC(=O)c2cc(COc3ccc(F)c(F)c3)on2)cs1 (stereo not given)	-7%	-6%	/	21%	/	-12%	/	/
CCOc1ccccc1OCC(=O)Nc1ccc(OC)c(S(=O)(=O)N2CCCCC2)c1	-4%	-20%	-9%	?	/	/	/	?
COc1ccc(CNC(=O)[C@H](C)NC(=O)C2CCN(C(=O)[C@@H](N)Cc3ccccc3)CC2)cc1	0%	8%	/	-6%	/	-1%	/	/
Cc1nn(Cc2nnc(SCC(=O)Nc3ccc(Cl)cc3)n2C)c(C)c1[N+](=O)[O-]	5%	-3%	15%	-21%	/	6%	/	1%
COc1ccc(/C=C(\NC(=O)c2ccc([N+](=O)[O-])cc2)C(=O)N2CCOCC2)cc1	0%	-19%	-2%[46.1 µM]	32%[activator]	/	2%	/	-30%[46.1 µM]
O=C(Nc1nnc(C2CC2)s1)C1Cc2ccccc2CN1C(=O)c1ccco1 (stereo not given)	1%	-14%	1%	-5%	/	/	/	-10%
CCOC(=O)N1CCC(NC(=O)c2ccc(NC(=O)C3CCCO3)cc2)CC1 (stereo not given)	-7%	8%	0%	9%	2.5%	-2%	-6%	5%
CCc1c(C(=O)Nc2ccncc2)csc1C	-5%	-6%	-8%	?	5.6%	-35%	-3%	-16%
COc1ccc(S(=O)(=O)Nc2nncs2)cc1	-9%	14%	7%	21%	-1.0%	1%	3%	22%[46.1 µM]
Cc1c2cnn(-c3ccccc3)c(=O)c2c(C)n1C(C)C(=O)NCc1cccc(Br)c1 (stereo not given)	/	/	-5%[46.1 µM]	0%	-7.8%	/	15%	?

Complete entries, quoted from the list.
Shown for CCc1c(C(=O)Nc2ccncc2)csc1C = SARS PLpro yeast: -5%; RE007 growth inh: -6%; Lassa entry inh: -8%; StopGo reporter: ?; Cruzain Triton: 5.6%; NS1 inh: -35%; Cruzain noTriton: -3%; Marburg entry inh: -16%
Shown for CCOc1ccccc1OCCCCCc1c(C)n[nH]c1C = SARS PLpro yeast: -7%; RE007 growth inh: 2%; Lassa entry inh: -21%; StopGo reporter: ?; Cruzain Triton: 2.8%; NS1 inh: -32%; Cruzain noTriton: 10%; Marburg entry inh: -29%
Shown for CCc1ccc(-n2c(CCC(=O)O)ccc2-c2cccs2)cc1 = SARS PLpro yeast: /; RE007 growth inh: /; Lassa entry inh: 4%[46.1 µM]; StopGo reporter: 13%; Cruzain Triton: -18%; NS1 inh: /; Cruzain noTriton: -15%; Marburg entry inh: 9%[46.1 µM]

(listing goes on)
SMILES	SARS PLpro yeast	RE007 growth inh	Lassa entry inh	StopGo reporter	Cruzain Triton	NS1 inh	Cruzain noTriton	Marburg entry inh
CCCCc1nnc(NC(=O)CSCc2cc(=O)n3c(C)csc3n2)s1	0%	3%	/	-11%	/	-8%	/	/
O=C(NCc1ccccc1)C1C2C=CC3(CN(Cc4cccnc4)C(=O)C13)O2 (stereo not given)	9%	-1%	3%	2%	-1.8%	?	-7%	8%
Cc1ccc(C)c(NC(=O)CCC(=O)N/N=C/c2ccc3c(c2)OCO3)c1	1%	-1%	2%	61%[activator]	/	1%	/	7%[46.1 µM]
CCn1ncc(NC(=S)NCCc2ccccc2)c1C(N)=O	0%	-5%	1%[46.1 µM]	9%	/	7%	/	?
O=C(N/C(=C/c1ccccc1)C(=O)N1CCCCC1)c1ccco1	-7%	-5%	/	11%	/	-1%	/	/
Cc1ccnc(NC(=O)CN2C(=O)NC(C)(c3ccc4ccccc4c3)C2=O)c1 (stereo not given)	4%	-9%	1%	16%	/	/	/	-1%
CC(=O)C1=C(c2ccc(Cl)c(Cl)c2)N(C(C)=O)n2c(nnc2C2CCCCC2)S1	/	/	18%[46.1 µM]	-14%	0.3%	/	-6%	/
O=C(CCCn1c(=O)c2sccc2n(CC(=O)OCc2ccccc2)c1=O)NCc1ccco1	3%	-2%	5%	-3%	2.5%	20%	-3%	-25%
O=C(O)c1ccc(CSc2nnc(-c3ccncc3)n2-c2ccc(Br)cc2)cc1	0%	2%	22%	5%	/	1%	/	2%[46.1 µM]
CC(C)c1ccc(N(CC(=O)N2CCOCC2)S(C)(=O)=O)cc1	/	17%	-7%[46.1 µM]	-1%	/	8%	/	9%[46.1 µM]
Cc1cc(C(=O)CSc2nnc(-c3ccc(F)cc3)o2)c(C)n1CC1CCCO1 (stereo not given)	2%	-12%	-16%	?	3.9%	5%	15%	-6%
Cc1cccc(NC(=O)CN2C(=O)CCS(=O)(=O)c3ccccc32)c1C	-6%	-9%	?	1%	/	6%	/	-11%[46.1 µM]
Oc1ccc2ccccc2c1CNc1ccc(Br)cn1	-12%	3%	/	50%[activator]	/	-33%	/	/
CC1CCN(c2oc(-c3ccc(COc4ccc(Cl)cc4)o3)nc2C#N)CC1	/	/	9%[46.1 µM]	-19%	-1.7%	/	0%	-1%[46.1 µM]
CCOC(=O)CC1=C(C(=O)OCC)C(c2ccc(C)o2)C(C#N)=C(N)O1 (stereo not given)	-2%	-7%	-4%	-7%	-5.7%	-9%	-10%	?
CC1CN(C(=O)c2ccccc2NS(=O)(=O)c2cccc([N+](=O)[O-])c2)CC(C)O1 (stereo not given)	23%	12%	2%	32%[activator]	-1.1%	-1%	0%	4%
Clc1nc(CN2CCCCC2)nc2sc3c(c12)CCC3	10%	-14%	?	-15%	/	7%	/	?
O=C(Nc1ccnn1C1CCN(C(=O)Cc2cccc(Cl)c2)CC1)C1CC1	7%	9%	-14%	-1%	/	-4%	/	22%
OCCC1CN(Cc2ccc(C(F)(F)F)cc2)CCN1Cc1ccccc1 (stereo not given)	1%	6%	-26%[46.1 µM]	-25%	/	-2%	/	?
O=S(=O)(c1cccs1)N1CCN(CC(O)COC2CCCc3ccccc32)CC1 (stereo not given)	-1%	13%	-22%	?	0.8%	-12%	8%	-9%
Cc1noc(C(=O)N2CC3(C)CC2CC(C)(C)C3)c1Cl (stereo not given)	4.5µM*	5%	/	-22%	-4.1%	?	-4%	/
Cc1ccc(C(C)C)c(OCC#CCN2CCOCC2)c1	-3%	-7%	/	-16%	/	1%	/	/
Cc1cccc(Oc2coc3cc(OC(=O)c4cccs4)ccc3c2=O)c1	1%	-5%	1%	49%[activator]	-0.9%	5%	-20%	21%
COc1ccc(NC(=O)Nc2ccc(C(=O)N3CCOCC3)cc2)c(OC)c1	1%	16%	23%[46.1 µM]	-2%	/	0%	/	-1%[46.1 µM]
NC(=O)c1cc(S(=O)(=O)N2CCc3ccccc3C2)cs1	2%	-3%	?	-18%	/	4%	/	-23%[46.1 µM]
O=C(CN(C(=O)c1csnn1)c1ccc(F)cc1)NCc1ccc2c(c1)OCO2	0%	-17%	/	19%	/	1%	/	2%[46.1 µM]
COc1ccccc1-c1c(C#N)c(SCC(=O)N2CCCC2)nc(C)c1C(N)=O	1%	/	/	/	2.5%	0%	19%	-2%
C/C(Cc1ccccc1)=N/NC(=O)CCCC(=O)N/N=C(/C)Cc1ccccc1	0%	-5%	-17%	-13%	/	/	/	-9%
Nc1c(C(=O)Nc2ccc(Cl)c(C(=O)O)c2)sc2nc3c(cc12)CCCC3	7%	3%	?	0%	/	25%	/	-15%
O=C(CSc1nc2cc(Cl)ccc2o1)Nc1ccc(N2CCOCC2)cc1	10%	-16%	-3%	-12%	2.0%	7%	-4%	?
Cn1c(C(=O)Nc2ccc3c(c2)OCCO3)cc2sccc21	-9%	-6%	47%[14.3 µM]	-10%	-9.4%	-57%	?	-6%
Cc1ccc2c(C)c(C(=O)N3CCN(C4CCS(=O)(=O)C4)CC3)oc2c1C (stereo not given)	-1%	0%	-4%	8%	/	-16%	/	17%
CCCNC(=S)N1CCN(c2nc(-c3ccc(C)cc3)cs2)CC1	0%	-28%	-11%	?	/	21%	/	?

In the list so far, these contain an NH in an aromatic ring.
SMILES	SARS PLpro yeast	RE007 growth inh	Lassa entry inh	StopGo reporter	Cruzain Triton	NS1 inh	Cruzain noTriton	Marburg entry inh
COc1ccc(Cl)cc1NC(=O)C(C)Sc1n[nH]c(N)n1 (stereo not given)	3%	25%	-10%	-7%	-3.3%	6%	10%	-6%
CCOc1ccccc1OCCCCCc1c(C)n[nH]c1C	-7%	2%	-21%	?	2.8%	-32%	10%	-29%
